From PubChem
POLB inh = blocks human DNA polymerase beta activity. Pol beta primer extension/strand displacement, fluorescence kinetic. Potency, µM (doses to about 114 µM), for the others: at the top dose activity change, negative = inhibition, actives largely listed as inhibitors. 340,000 compounds, 1.3% hits. AID 485314; further: on the % scale 0 is the no-effect control and ±100 the full control effect
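Kinetic readout of DNA synthesis with strand displacement by Pol beta. Compound and 10 nM enzyme sit 15 min at room temperature; 50 nM substrate starts the reaction, read immediately and at 10 min.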
APE1 inh = APE1 (human) endonuclease inhibition; P27695; recombinant APE1, TAMRA/BHQ-2 abasic DNA cleavage fluorescence; 350,000 compounds, 0.35% hits; Potency, µM (top dose mostly 65.8 µM), for the others: at the top dose activity change, negative = inhibition, most hits filed as inhibitors; AID 2517;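 further: plate controls were vehicle for no effect and reference inhibitor for full effect; nearly all actives have a fitted effect of over 55% in size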
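Quantitative HTS: incision of a TAMRA/BHQ-2 double-stranded substrate bearing a tetrahydrofuran abasic site by 0.75 nM APE1 raises fluorescence. Substrate 50 nM final, added after 15 min compound preincubation at room temperature; progress as third-minus-first kinetic read difference.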
BLM inh = inhibitors of human Bloom syndrome helicase BLM; P54132; recombinant BLM DNA unwinding, fluorescence dequenching; Potency, µM (series often up to 56.1 µM), for inactives: at the top dose activity change, negative = inhibition, actives largely listed as inhibitors; 350,000 compounds, 0.2% hits; AID 2528;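 further: plate controls were vehicle for no effect and no enzyme for full effect; nearly all actives have a fitted effect of over 35% in size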
Pol kappa inh = DNA polymerase kappa (human) inhibition. Potency, µM (highest dose often 107 µM), for the others: top-dose activity, negative = inhibition, actives largely listed as inhibitors. purified Pol kappa, fluorescent DNA synthesis assay, 10 min. Q9UBT6. 400,000 compounds, 0.53% hits; further: on the % scale 0 is the no-effect control and ±100 the full control effect
Target sequence (Q9UBT6 whole entry, looked up): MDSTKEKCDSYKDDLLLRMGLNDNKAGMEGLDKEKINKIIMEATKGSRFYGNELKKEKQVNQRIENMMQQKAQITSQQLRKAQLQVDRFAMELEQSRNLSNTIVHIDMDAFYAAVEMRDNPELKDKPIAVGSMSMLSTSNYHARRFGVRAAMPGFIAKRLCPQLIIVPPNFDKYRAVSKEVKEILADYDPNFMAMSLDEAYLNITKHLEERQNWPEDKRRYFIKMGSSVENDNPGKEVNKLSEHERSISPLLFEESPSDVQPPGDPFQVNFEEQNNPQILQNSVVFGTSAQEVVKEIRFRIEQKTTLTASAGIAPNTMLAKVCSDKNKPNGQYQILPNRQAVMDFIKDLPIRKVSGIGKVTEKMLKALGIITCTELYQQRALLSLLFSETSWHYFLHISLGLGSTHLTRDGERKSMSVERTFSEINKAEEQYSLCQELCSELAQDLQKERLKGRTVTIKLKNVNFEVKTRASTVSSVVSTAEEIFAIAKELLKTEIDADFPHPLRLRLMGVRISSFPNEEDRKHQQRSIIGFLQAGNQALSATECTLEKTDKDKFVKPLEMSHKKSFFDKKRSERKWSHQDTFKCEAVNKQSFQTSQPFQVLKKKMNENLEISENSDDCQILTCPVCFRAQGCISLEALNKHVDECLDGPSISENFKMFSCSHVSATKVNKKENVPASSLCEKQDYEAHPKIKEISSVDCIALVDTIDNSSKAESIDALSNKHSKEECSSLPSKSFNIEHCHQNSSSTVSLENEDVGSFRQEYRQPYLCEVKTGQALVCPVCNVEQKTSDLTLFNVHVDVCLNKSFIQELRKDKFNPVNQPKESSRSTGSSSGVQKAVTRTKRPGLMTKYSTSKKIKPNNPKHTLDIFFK
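Fluorescent qHTS in 1536-well format: enzyme (10 nM) and compound sat 15 min at room temperature before 50 nM substrate (final) was added. Signal taken at 0 and 10 min; no-enzyme buffer wells were negative controls.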
Pol eta inh = blocks human DNA polymerase eta activity | Q9Y253 | recombinant Pol eta, fluorescent DNA replication assay | 390,000 compounds, 1.2% hits | Potency, µM (series often up to 114 µM), inactives show at the top dose activity change, negative = inhibition, actives largely listed as inhibitors; further: on the % scale 0 is the no-effect control and ±100 the full control effect
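Pol eta at 10 nM preincubated with compounds 15 min at room temperature; reaction started with fluorescent substrate (50 nM final) and read kinetically at 0 and 10 min.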
G9a block = G9a (human) methyltransferase inhibition | Q96KQ7 | G9a H3K9 monomethylation, AlphaScreen, 2 h | Potency, µM (doses to about 102 µM), without a hit: at the top dose activity, negative = inhibition, actives largely listed as inhibitors | 350,000 compounds, 8.8% hits | AID 504332; further: on the % scale 0 is the no-effect control and ±100 the full control effect; nearly all actives have a fitted effect of over 75% in size
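Enzyme 20 nM + cpd, 15 min RT; add b-H3K9 pep 500 nM / SAM 20 uM; 2 h RT; anti-H3K9me1 Ab 0.5 ug/mL + SA donor / anti-rabbit acceptor beads 20 ug/mL each, 10 min; AlphaScreen read.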
Pol iota inh = blocks human DNA polymerase iota activity. Pol iota fluorescent replication assay, 10 min. Potency, µM (top dose mostly 115 µM), for inactives: at the top dose activity, negative = inhibition, actives largely listed as inhibitors. 390,000 compounds, 1% hits. AID 588590
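Fluorescent replication assay read twice, at 0 min and 10 min after adding 50 nM (final) substrate. Enzyme (10 nM) and compounds were first incubated 15 min at room temperature; enzyme-free buffer wells were negative controls.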
An asterisk follows results filed as active; u = inconclusive; x = not tested or not shown; [ ] = remark or other dose. The call rests on the fitted dose curve; in most records, active means well fitted curve in the direction sought with a large enough effect; inconclusive means small, poorly fitted or top-dose-only effect, or another doubt; inactive means no such curve, though single readings can be large; an effect the other way counts as inactive or inconclusive. Potency means the concentration at half of the fitted maximal effect. Only part of the results is shown; the hit share may differ from the screen's.

APE1 inh,BLM inh,Pol kappa inh,Pol eta inh,POLB inh,Pol iota inh,G9a block,compound
5%,0%,5%,-15%,-12%,17%,u,COc1ccc(NC(=O)C(C)N2CCN(C)CC2)cc1 (configuration not stated)
5%,4%,-4%[60.1 µM],-1%,8%,19%,11µM*,CCOCCCNC(=O)CN1CCN(c2ccc(F)cc2)CC1
-4%,-6%,-6%,2%,2%,u,25µM*,COc1cc(NC2c3ncccc3C(=O)N2Cc2ccco2)cc(OC)c1 (configuration not stated)
-1%,0%,-5%,-2%,-25%,24%,u,COc1cccc(C(=O)N2CCN(Cc3cccc(F)c3)CC2)c1
1%,-7%,-23%,-13%,9%,-5%,u,Cc1cccc(OCCn2c(-c3ccco3)nc3ccccc32)c1
-1%,4%,-6%,-2%,-6%,15%,x,CCN1CCN(CCOc2ccc(Cl)cc2)CC1
0%,-9%,-7%,-17%,0%,0%,3%[12.7 µM],Oc1ccc(-c2nc3ncccn3c2Nc2ccc3c(c2)OCCO3)cc1
3%,-2%,5%,-10%,2%,-12%,0%[0.0925 µM],Cn1c(-c2ccc(F)cc2)cnc1NCc1cccc(F)c1
28%,-2%,-4%,11%,1%,u,10µM*,COc1ccc(Br)cc1CN1CCN(C(=O)c2cccc(F)c2)CC1
13%,-7%,-16%,-26%,18%,6%,45µM*,Cc1cccc(N/N=C(\C(N)=O)C2=NC(C)(C)Cc3ccccc32)c1
-4%[12.4 µM],-3%[12.4 µM],-4%,-2%,10%,u,11%[12.7 µM],CC1(OC(=O)C2CCCC2)C(=O)C=C2C=C(c3ccsc3)N(C3CCCC3)C=C2C1=O (configuration not stated)
-4%,-6%,5%,-23%,-1%,3%,10µM*,O=[N+]([O-])c1ccccc1S(=O)(=O)N1CCN(CC2CC3C=CC2C3)CC1 (configuration not stated)
0%,-3%,-11%[60.1 µM],4%,6%,8%,6.3µM*,CC(C)NC(=O)CN1CCN(c2ncccn2)CC1
40%,3%,-8%,-5%,-5%,2%,u,CC(=O)c1ccc(NC(=O)CNCc2cccs2)cc1

An excerpt taken from the entries so far, for reference:
APE1 inh,BLM inh,Pol kappa inh,Pol eta inh,POLB inh,Pol iota inh,G9a block,compound
5%,0%,5%,-15%,-12%,17%,u,COc1ccc(NC(=O)C(C)N2CCN(C)CC2)cc1 (configuration not stated)
5%,4%,-4%[60.1 µM],-1%,8%,19%,11µM*,CCOCCCNC(=O)CN1CCN(c2ccc(F)cc2)CC1
-4%,-6%,-6%,2%,2%,u,25µM*,COc1cc(NC2c3ncccc3C(=O)N2Cc2ccco2)cc(OC)c1 (configuration not stated)
-1%,0%,-5%,-2%,-25%,24%,u,COc1cccc(C(=O)N2CCN(Cc3cccc(F)c3)CC2)c1
1%,-7%,-23%,-13%,9%,-5%,u,Cc1cccc(OCCn2c(-c3ccco3)nc3ccccc32)c1
-1%,4%,-6%,-2%,-6%,15%,x,CCN1CCN(CCOc2ccc(Cl)cc2)CC1
0%,-9%,-7%,-17%,0%,0%,3%[12.7 µM],Oc1ccc(-c2nc3ncccn3c2Nc2ccc3c(c2)OCCO3)cc1
3%,-2%,5%,-10%,2%,-12%,0%[0.0925 µM],Cn1c(-c2ccc(F)cc2)cnc1NCc1cccc(F)c1
28%,-2%,-4%,11%,1%,u,10µM*,COc1ccc(Br)cc1CN1CCN(C(=O)c2cccc(F)c2)CC1
13%,-7%,-16%,-26%,18%,6%,45µM*,Cc1cccc(N/N=C(\C(N)=O)C2=NC(C)(C)Cc3ccccc32)c1
-4%[12.4 µM],-3%[12.4 µM],-4%,-2%,10%,u,11%[12.7 µM],CC1(OC(=O)C2CCCC2)C(=O)C=C2C=C(c3ccsc3)N(C3CCCC3)C=C2C1=O (configuration not stated)
-4%,-6%,5%,-23%,-1%,3%,10µM*,O=[N+]([O-])c1ccccc1S(=O)(=O)N1CCN(CC2CC3C=CC2C3)CC1 (configuration not stated)
